AmpC inh no det: AmpC beta-lactamase inhibition, detergent-free assay; hit rate 1.8% among 71,000; Potency, µM (highest dose often 28.7 µM), inactives show at the top dose activity change, negative = inhibition; AmpC nitrocefin hydrolysis, absorbance 480 nm, no detergent; potencies from a single point are estimates; P00811; active = falling curve, for most hits resting on a single point; inconclusive = weak or doubtful change; inactive = flat or rising curve; note: % of control where 0% means no effect; about half of the hits show no inhibition at the top dose; a quarter of the inactives give rising signals
Target sequence (P00811 whole entry, looked up): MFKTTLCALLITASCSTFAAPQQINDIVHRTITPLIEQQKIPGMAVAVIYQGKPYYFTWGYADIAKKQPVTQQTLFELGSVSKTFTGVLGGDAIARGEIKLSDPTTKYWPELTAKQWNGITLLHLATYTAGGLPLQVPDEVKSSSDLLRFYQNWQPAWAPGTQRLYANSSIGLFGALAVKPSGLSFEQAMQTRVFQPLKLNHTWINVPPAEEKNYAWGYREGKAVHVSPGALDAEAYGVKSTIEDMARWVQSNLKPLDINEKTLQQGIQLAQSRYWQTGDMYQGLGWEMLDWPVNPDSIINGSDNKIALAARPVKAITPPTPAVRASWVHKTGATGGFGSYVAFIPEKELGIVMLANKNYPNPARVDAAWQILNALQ
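Enzyme, pH 7.0 phosphate. Compound titrations were pre-incubated with AmpC for 15 min at room temperature before nitrocefin (stock 800 uM) addition; product formation was recorded at 480 nm every 20 s for 4 min.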
Starred values were filed as active, the others as inactive; & = joins results of further samples; [ ] = another dose, or the depositor's remark. Potency is the fitted concentration of half-maximal effect. Some of the compounds tested. The share of hits here may be higher or lower than overall.

SMILES	AmpC inh no det
O=C1NC(c2ccccc2)C(C(=O)c2cccs2)=C1O (stereo unspecified)	2%
Cc1ccccc1-c1nnc(SCc2ccc(F)cc2)o1	15%
CCOc1cc(CNCC2CCCO2)cc(Br)c1OCC(N)=O (stereo unspecified)	11%
O=C(c1ccccc1)N1CCN(c2ccc(NCc3ccc4c(c3)OCO4)cc2)CC1	81%
O=c1oc2ccccc2n1Cn1c(=O)oc2ccccc21	-11%
Cc1ccc(C)c(Cn2c(=O)n(CCCC(=O)NCc3ccco3)c(=O)c3ccccc32)c1	37%
CCC(CC)C(=O)NCCc1ccc(S(N)(=O)=O)cc1	-3%
Cc1nnc(NC(=O)CSc2nnc(CNC(=O)c3ccccc3)n2-c2ccccc2)s1	36%
CCCC(=O)Nc1ccc(OC[C@@H](O)CNC(C)C)c(C(C)=O)c1	-7%[12.8 µM]
CCC(Sc1ccc(C(=O)O)cc1)C(=O)O (stereo unspecified)	-2%

4 compounds already listed, ordered by molecular weight, smallest number first.
SMILES	AmpC inh no det
O=c1oc2ccccc2n1Cn1c(=O)oc2ccccc21	-11%
CCC(CC)C(=O)NCCc1ccc(S(N)(=O)=O)cc1	-3%
CCCC(=O)Nc1ccc(OC[C@@H](O)CNC(C)C)c(C(C)=O)c1	-7%[12.8 µM]
O=C(c1ccccc1)N1CCN(c2ccc(NCc3ccc4c(c3)OCO4)cc2)CC1	81%

(listing goes on)
SMILES	AmpC inh no det
CCC(C)NC(=O)CC(c1ccc(OC)cc1)n1cccc1 (stereo unspecified)	-4%
CCCC(=O)Nc1cc(C)c2c(=O)oc3ccccc3c2n1	1%
CC(C(=O)OCn1nnc2ccccc2c1=O)N1C(=O)c2ccccc2C1=O (stereo unspecified)	-4%
Cc1cc(SCC(=O)NC(=O)NCc2ccco2)nc2c(C)cccc12	-20%
COc1cccc(N(CC(=O)NC(C)c2ccccc2)S(C)(=O)=O)c1 (stereo unspecified)	10%
N#Cc1nc(-c2ccco2)oc1N1CCC(C(N)=O)CC1	-7%
COCNc1nc(OCC#N)nc(N(C)C)n1	-10%
Cc1cc(C)c2nc3c(c(C(=O)O)c2c1)CCC3	-8%
COc1ccc(OC)c(NS(=O)(=O)Cc2ccccc2)c1	2%
COc1ccc(NS(=O)(=O)c2ccc(N)c(C(=O)O)c2)cc1	-14%
CN(CC(=O)N1CC=C(c2ccccc2)CC1)S(=O)(=O)c1cnc[nH]1	25%
COc1ccccc1-c1cc(C(F)(F)F)nc(N2CCN(c3ccc(F)cc3)CC2)n1	-8%
COc1ccc(N2C(=O)[C@@H]3Cc4ccccc4CN3C2=O)cc1	2%
O=C(OCn1nnc2ccccc2c1=O)C1COc2ccccc2O1 (stereo unspecified)	8%
CCOc1ccc(C(=O)Nn2cnnc2)cc1	-8%
N#CC1=C(N)OC2=C(C(=O)CCC2)C1c1ccc(OC(=O)N2CCOCC2)cc1 (stereo unspecified)	12%
COc1ccc(C2N=C(N)N=C(N)N2c2ccccc2)cc1OC (stereo unspecified)	-15%
O=C(NCCc1ccccc1)c1noc2c1CCc1ccccc1-2	-24%
CCC(=O)Nc1ccc(-c2nn3c(C)nnc3s2)cc1	14%
CCCCCCn1c(N)c(C(=O)NCCN2CCOCC2)c2nc3ccccc3nc21	133%

Some of the entries so far, bar-delimited.
mol | AmpC inh no det
N#CC1=C(N)OC2=C(C(=O)CCC2)C1c1ccc(OC(=O)N2CCOCC2)cc1 (stereo unspecified) | 12%
COc1ccc(C2N=C(N)N=C(N)N2c2ccccc2)cc1OC (stereo unspecified) | -15%

The list goes on.
SMILES	AmpC inh no det
Cc1ccc(S(=O)(=O)NCCn2c(C)cc3ccccc32)cc1	16µM*[single pt active]
O=C1NCCCc2nc(Oc3ccccc3)sc21	-4%
Cc1c(NC(=O)CC(O)(C(F)(F)F)C(F)(F)F)c(=O)n(-c2ccccc2)n1C	3%
O=C1C[C@H]2OCC=C3CN4CC[C@@]5(C(=O)O)[C@H](N1)[C@H]2[C@H]3C[C@H]45	6%[5.75 µM]
CC(=O)Nc1ccc(S(=O)(=O)Nc2cccc(N(C)S(C)(=O)=O)c2)cc1	-6%
O=C(O)c1ccc(COc2ccc(CO)cc2Cl)cc1	-10%
Cc1cc(O)c(C(C)(C)C)cc1Sc1cc(C(C)(C)C)c(O)cc1C	13µM*
c1ccc(CCCN2CCN(CCOC(c3ccccc3)c3ccccc3)CC2)cc1	70%&74%
COC(=O)CSc1nnc(-c2ccoc2C)n1-c1ccc(C)cc1	45%
FC(F)(F)c1ccccc1-c1nc(NCCN2CCOCC2)c2ccccc2n1	28%

7 compounds picked at random from those above, as already listed:
SMILES	AmpC inh no det
Cc1c(NC(=O)CC(O)(C(F)(F)F)C(F)(F)F)c(=O)n(-c2ccccc2)n1C	3%
O=C1NCCCc2nc(Oc3ccccc3)sc21	-4%
Cc1cc(O)c(C(C)(C)C)cc1Sc1cc(C(C)(C)C)c(O)cc1C	13µM*
O=C1C[C@H]2OCC=C3CN4CC[C@@]5(C(=O)O)[C@H](N1)[C@H]2[C@H]3C[C@H]45	6%[5.75 µM]
O=C(O)c1ccc(COc2ccc(CO)cc2Cl)cc1	-10%
FC(F)(F)c1ccccc1-c1nc(NCCN2CCOCC2)c2ccccc2n1	28%
COC(=O)CSc1nnc(-c2ccoc2C)n1-c1ccc(C)cc1	45%

(cont.)
SMILES	AmpC inh no det
COC(=O)c1cn(NC(=O)C2COc3ccccc3O2)c(=O)c2ccccc12 (stereo unspecified)	-8%
COc1ccc(-n2c(=O)c(-c3ccccc3)nc3cnc(N4CCNCC4)nc32)cc1	2%
O=C(c1ccco1)N1CCC(c2nc(-c3ccc(F)cc3)no2)CC1	46%
CNC(=O)c1cc2cccc(OC)c2oc1=O	-1%
CNC(=O)c1cc2cc(OC)ccc2oc1=N	-9%
N#CC1=C(N)Oc2n[nH]c(-c3ccc(F)cc3)c2C1c1ccncc1 (stereo unspecified)	2%
CC1(C)C(C=C(Cl)Cl)C1C(=O)N1CCN(c2ccccc2)CC1 (stereo unspecified)	18%
COc1ccc2cc3cc(C(=O)NCc4ccc5c(c4)OCO5)oc3nc2c1	3%
CC(Sc1nc(NCc2ccccc2)nc(N2CCOCC2)n1)C(=O)Nc1ccccc1 (stereo unspecified)	8%
COC(=O)/C=C\c1cc(O)ccc1O	5%
CCCc1nnc(NC(=O)CCC(=O)N2CCN(CCOc3ccc(C)cc3)CC2)s1	132%
COc1cc2cc(C(c3nnnn3C(C)(C)C)N3CCc4ccccc43)c(=O)[nH]c2cc1OC (stereo unspecified)	149%
CCOc1ccccc1NC(=O)CN(Cc1ccccc1)S(C)(=O)=O	45%
CCC(=NCC1CCCO1)c1c(O)n(-c2ccccc2)c(=O)[nH]c1=O (stereo unspecified)	-9%
C[C@@H](C(=O)NCC1CC1)[C@@H]1C[C@@]1(C)[C@@H](NC(=O)OCc1ccccc1)c1ccccc1	79%
O=C(O)CN1C(=O)CC(Cc2ccc(Cl)cc2)C1=O (stereo unspecified)	-3%
O=C(CSc1nc2ccccc2[nH]1)c1ccc2c(c1)OCO2	-20%
Cc1cc(C(=O)OCC(=O)N2c3ccccc3CC2C)c(C)o1 (stereo unspecified)	2%
O=C(c1cc2cc(Cl)ccc2oc1=O)N1CCCC1	1%
CC(=O)NC(CCS(C)(=O)=O)C(=O)Nc1c(F)cccc1F (stereo unspecified)	-12%
NC(=O)c1c(NC(=O)CSc2nnc(Cc3ccccc3)n2Cc2ccco2)sc2c1CCC2	-6%
COc1cc2[nH]c(=O)n(CCCC(=O)N3CC=C(c4ccccc4)CC3)c(=O)c2cc1OC	131%
Cc1ccc(C(C)NC(=O)c2c(C)noc2C)cc1C (stereo unspecified)	12%
COc1ccc(C(=O)Nn2c(C)ccc2C)cc1OC	16%
COc1ccc(-c2noc(CCC(=O)Nc3cccnc3)n2)cc1OC	12%
CCOc1ccc(N(CC(=O)NCc2ccccc2)S(=O)(=O)c2c(C)noc2C)cc1	32%
O=C1Nc2ccccc2C(O)(C(=O)NCc2ccco2)N1c1ccc(Cl)c(Cl)c1 (stereo unspecified)	-6%
CCOc1ccc(CN2C(=O)c3ccccc3C2C(=O)NCc2cccnc2)cc1 (stereo unspecified)	16%
CCCc1c(C)c2ccccc2[nH]c1=O	-6%
COc1ccc2c(c1)CCCC21NC(=O)NC1=O (stereo unspecified)	2%
CN=C1SC(CC(=O)Nc2ccccc2F)C(=O)N1C (stereo unspecified)	-13%
O=C(CSc1ccc2nnc(-c3ccccn3)n2n1)Nc1ccc2c(c1)OCCO2	0%
COCCn1c(C)cc(C(=O)CSc2nc3ccccc3o2)c1C	36%
COC(=O)Cc1cc(=O)[nH]c(/N=C(/NC(=O)c2ccccc2)Nc2ccccc2C)n1	17%
Fc1cccc(-n2c(-c3ccco3)nc3nc4ccccc4nc32)c1	1%
COc1ccc(/C(O)=C2\C(=O)C(=O)N(CCN(C)C)C2c2cc(OC)c(OC)c(OC)c2)c(C)c1 (stereo unspecified)	-11%
CCC(=O)Nc1ccc(S(=O)(=O)Nc2cccc(C)c2)cc1OC	-4%
O=C(Nc1ccccc1)N1CCN(Cc2ccc3c(c2)OCO3)CC1	4µM*[single pt active]
COc1cc2c(cc1OC)C(COc1ccc(F)cc1)N(C(=O)c1ccco1)CC2 (stereo unspecified)	92%
CCOC(=O)CSc1nnc(CNC(=O)c2ccc(OC)cc2)n1C1CCCCC1	92%

Rewritten with each value named: entries from further up.
COc1cccc(N(CC(=O)NC(C)c2ccccc2)S(C)(=O)=O)c1 (stereo unspecified)
  AmpC inh no det: 10%
CCOc1ccc(N(CC(=O)NCc2ccccc2)S(=O)(=O)c2c(C)noc2C)cc1
  AmpC inh no det: 32%

Next part.
SMILES	AmpC inh no det
CC1(C)CC(OC(=O)c2ccco2)CC(C)(C)N1O	-11%
CCOC(=O)Cn1c(C(F)(F)F)nc2nc(Cl)c(Cl)nc21	2%[5.75 µM]
CCOC(=O)CN1CC23C=CC(O2)C(C(=O)NCc2cccs2)C3C1=O (stereo unspecified)	12%
O=C(c1ccccc1)N1CCN(CC#CC2(O)CCCCC2)CC1	28%
CC(=O)N1CCC2(CC1)CCN(c1ncccn1)CC2	6%
CC1(C)CC(=O)C2=C(C1)Nc1ccccc1N=C2	32%
COc1ccccc1N1CCN(CC(=O)c2c(C)[nH]c3ccccc23)CC1	42%
CCn1c(=N)c(C(=O)NC)cc2c(=O)n3cccc(C)c3nc21	-6%
CC1(C)C(=O)OC(c2cccs2)C(C)(C)C1=O (stereo unspecified)	-2%
COc1ccc(C2c3c(oc4ccc(C)cc4c3=O)C(=O)N2c2cc(C)ccn2)cc1OC (stereo unspecified)	111%
COc1ccc(C2CC(c3c(O)cc(C)oc3=O)=NCCS2)c(OC)c1 (stereo unspecified)	45%
CCN1CCN(CCNC(=O)CS(=O)(=O)Cc2nc(-c3ccc(C)cc3)oc2C)CC1	41%
CCOC(=O)C1C(=O)NC(N2CCCCC2)=NC1C(C)C (stereo unspecified)	-10%
CCOC(=O)N1CCC(NCCNC(=O)c2cccs2)CC1	0%
CC(=O)OC1(c2ccccc2)CCN(C)C2CCCCC21 (stereo unspecified)	-12%
CCn1c(SCC(=O)Nc2cccc(C(C)=O)c2)nnc1C(C)C	20%
O=C(c1ccncc1)N1CCC2(CC1)CCN(c1cccc(-c3ccccc3)c1)CC2	162%
O=C(NCCN1CCN(c2ccccc2)CC1)C1(S(=O)(=O)c2ccc(Cl)cc2)CC1	107%
COc1ccc(C2C3=C(CCCC3=O)Nc3nc(SCc4ccc(C(=O)O)cc4)nn32)cc1OC (stereo unspecified)	-6%
CCCn1c(O)c(CN2CCCC(C)C2)c(C)c(C#N)c1=O (stereo unspecified)	-10%
O=C(Nc1nnc(-c2ccco2)s1)c1ccccc1	-4%
Cc1ccc(NC(=O)C2CCCN2S(=O)(=O)c2ccc3c(c2)CCC(=O)N3)cc1Cl (stereo unspecified)	4µM*[single pt active]
Cc1cccc(N2CCc3c2nc2ccccc2c3N)c1	10%&16%
CC(=O)c1c(O)c(C)c(O)c2c1OC1=CC(=O)[C@H](C(C)=O)C(=O)[C@]12C	-5%
Cc1ccc(S(=O)(=O)N=Nc2c(O)[nH]c3cc(O)c(C(=O)O)cc23)cc1	5%[5.75 µM]
Cc1ccc(-c2nnn(CC(=O)Nc3ccccc3N3CCOCC3)n2)cc1	32%
Cc1[nH]nc2c1C(c1ccoc1)C(C#N)=C(N)O2 (stereo unspecified)	10%
CCn1c2ccccc2c2cc(C3C(C#N)=C(N)Oc4n[nH]c(COC)c43)ccc21 (stereo unspecified)	31%
COc1ccc(CCNC(=O)C2CCCCC2C(=O)O)cc1OC (stereo unspecified)	-6%
Cc1ccc(-n2ncc3c(=O)n(CC#N)cnc32)cc1	5%
CN(C)CCNc1ccccn1	2%[5.75 µM]
O=C(c1ccncc1)N1CCC2(CCCN(c3ncccn3)C2)CC1	13%
c1ccc(-c2nnc(-c3ccco3)o2)cc1	-4%
COc1ccc(CNC(=O)C2CCN(S(=O)(=O)N3CCOCC3)CC2)cc1	-4%
COc1ccc(Cn2c(=O)[nH]c3cc(C(=O)NCCCN4CCCC4=O)ccc3c2=O)cc1	64%
C=CCn1c(=O)c2ccccc2n2c(SCc3csc(-c4ccccc4)n3)nnc12	84%
COc1ccc2[nH]c(=O)c(CN(Cc3ccccc3)Cc3nnnn3CC3CCCO3)cc2c1 (stereo unspecified)	106%
O=C(C1CCC1)N1CCc2cc(S(=O)(=O)N3CCCCC3)ccc21	10%
C=CCn1c(Cc2csc(N)n2)nnc1SCC(=O)Nc1ccc(C(=O)OCC)cc1	28%
Cc1ccc(-n2nnnc2SCC(=O)Nc2c(C)n(C)n(-c3ccccc3)c2=O)cc1	6%

Assay outcomes from PubChem.
